MLL AF4-AF9 inh – inhibitors of human MLL-AF4/AF9 interaction. P42568. AlphaScreen, biotin-AF4 peptide binding to FLAG-AF9. inhibition, % at 10 µM. hit rate 0.47% among 350,000. AID 651704;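 active = every replicate reaching a set inhibition limit, whatever the replicate mean, cut at about 25% in these data; inconclusive = mean inhibition reaches that limit but some replicates miss it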;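 also: 0% = plate neutral control median and 100% = total signal loss; the record names both 10 and 1 µM as test concentration; the first replicate is given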
Target sequence (P42568 whole entry, looked up): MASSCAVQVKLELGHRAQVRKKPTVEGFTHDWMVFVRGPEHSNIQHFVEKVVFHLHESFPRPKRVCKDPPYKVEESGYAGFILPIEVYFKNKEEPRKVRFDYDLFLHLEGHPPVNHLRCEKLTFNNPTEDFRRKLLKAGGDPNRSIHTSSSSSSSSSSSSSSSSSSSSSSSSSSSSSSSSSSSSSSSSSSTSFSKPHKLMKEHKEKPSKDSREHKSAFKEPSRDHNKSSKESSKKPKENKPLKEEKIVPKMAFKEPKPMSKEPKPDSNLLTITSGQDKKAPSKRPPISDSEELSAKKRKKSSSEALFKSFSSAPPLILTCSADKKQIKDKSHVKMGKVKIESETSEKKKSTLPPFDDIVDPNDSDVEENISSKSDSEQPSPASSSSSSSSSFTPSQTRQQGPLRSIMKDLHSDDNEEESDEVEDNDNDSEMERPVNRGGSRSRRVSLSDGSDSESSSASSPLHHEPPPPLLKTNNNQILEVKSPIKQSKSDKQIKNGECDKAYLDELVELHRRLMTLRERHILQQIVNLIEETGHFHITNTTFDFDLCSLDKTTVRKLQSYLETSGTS
Ecoli growth – inhibitors of Escherichia coli growth; OD600, 23 h; stronger effect = lower value; OD600 absorbance (concentration not given with the values); hit rate 0.21% among 330,000;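 active = OD600 absorbance below the run mean of sample wells minus 3.6 SD, in any replicate, cut at about 0.56 in these data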;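 also: stock transfer was 300 nL into about 60 µL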
Vif A3G – HIV-1 Vif–A3G interaction blockers – biochemical, TR-FRET, GST-Vif 1-94, biotin-A3G peptide, dose response retest, primary screen (AID 1117319); TR-FRET GST-Vif / biotin-A3G peptide binding; higher % means a stronger effect; test concentration not given here; strong numbers were not always called active; inhibition, %, or IC50 in µM where a hit was titrated; hit rate 0.57% among 260,000;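 active = above the screen mean plus three standard deviations and confirmed in dose response; inconclusive = results disagree or hit not tested in dose response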;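 also: Vif residues 1-94 fused to GST binding biotinylated APOBEC3G peptide 110-148; 0% = full assay without inhibitor and 100% = GST in place of GST-Vif; retest series ran down from 100 µM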
HNF4A DNA FP – change in binding of human HNF4 alpha to DNA. P41235. HNF4a-FITC DNA binding, fluorescence polarization, 1 h. activity change, % at 10 µM. hit rate 0.3% among 360,000. AID 1224865; in the data active = activity change above about 30%, passing the limit was not always enough;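 also: controls were the assay level and a saturating level of protein; the project sought stronger binding though the title names inhibitors; some compounds called inactive have numbers as strong as hits; positive values seem to mean higher polarization but the record does not say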
FGF22 binding – binders of recombinant human FGF22 by thermal shift | Q9HCT0 | calls only at 9.99 µM | hit rate 1.5% among 340,000 | AID 651658 | SYPRO orange fluorescence; percent of sucrose octasulfate shift, DMSO zero;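 active = melting point raised past a set limit in the mean and every replicate; inconclusive = no clear call; three in four hits are not shown here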
Target sequence (Q9HCT0 whole entry, looked up): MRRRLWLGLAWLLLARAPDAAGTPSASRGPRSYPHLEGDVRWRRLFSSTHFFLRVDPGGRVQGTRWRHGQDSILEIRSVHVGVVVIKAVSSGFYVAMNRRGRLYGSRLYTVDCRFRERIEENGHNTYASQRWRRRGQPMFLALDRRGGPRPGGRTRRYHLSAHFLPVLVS
RanGTP-Impb inh – disruptors of Ran-importin-beta complex formation – biochemical, FRET, CFP-Ran, YFP-importin-beta, homogeneous, primary screen; cell-free CFP-Ran/YFP-importin-beta FRET ratio; inhibition, % (concentration not given with the values); hit rate 1.1% among 300,000; AID 2216;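 active = most replicates above 15%; inconclusive = exactly half above 15%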;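 also: 0% = DMSO wells and 100% = Ran loaded with GDP instead of GTP; wells of about 40 µL received 100 nL stock; the first replicate is given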
UCH37 inh – human UCH37 deubiquitinating enzyme inhibition; Q9Y5K5; purified proteasome/UCH37, Ub-AMC cleavage fluorescence; inhibition, % (concentration not given with the values); hit rate 0.33% among 330,000;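 active = mean of two replicates above 20%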;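 also: 0% = compound-free wells with enzyme and 100% = wells lacking proteasome; stock transfer was 100 nL into about 20 µL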
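Reagent: Ub-AMC substrate; assay system: Proteasome-associated human UCH37 deubiquitinase; controls: no-proteasome and no-compound wells; read-out: % inhibition of Ub-AMC cleavage fluorescence; timing: 30 min preincubation with enzyme, 25 min cleavage at room temperature; signal: AMC fluorescence from Ub-AMC cleavage, excitation 355 nm, emission 460 nm; buffer or medium: Tris-HCl pH 7.4 plus ovalbumin, ATP-MgCl2, DTT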
* marks the source's active call; other numbers are inactive results; i = inactive; ? = inconclusive; / = no result given; & = joins results of further samples.

SMILES | MLL AF4-AF9 inh | Ecoli growth | Vif A3G | HNF4A DNA FP | FGF22 binding | RanGTP-Impb inh | UCH37 inh
CCOc1ccc(-c2ncncc2-c2ccc(OC)c(OC)c2)c(O)c1 | 0.4 | 0.68 | -4% | 4.5 | i | ? | 6.7
Cc1ccc(C)c(/C(O)=C2\C(=O)C(=O)N(CCCn3ccnc3)C2c2cccnc2)c1 (stereo not drawn) | / | / | ? | 0.2 | / | 3.7 | 2.3
CC(C)C[C@H](NC(=O)OC(C)(C)C)c1n[nH]c(=S)n1N | / | 0.69 | -3% | -2.3 | / | 11 | 1.5
O=C(O)C(NC(=O)c1ccccc1)=C(Cl)Cl | / | 0.72 | / | 5.2 | / | ? | 4.1
O=C(CCC(=O)Nc1ccccc1)N/N=C/c1cccnc1 | 2.8 | / | 2% | 1.9 | i | 3.5 | /
COc1ccc(C(=O)NCC(=O)OCC(=O)N2CCN(S(=O)(=O)c3ccccc3)CC2)cc1 | / | 0.67 | 6% | 0.8 | / | -2.7 | 0.3
Oc1cccc(C(Nc2nccs2)c2ccc3cccnc3c2O)c1 (stereo not drawn) | 49* | 0.64 | / | -0.6 | / | 2.4 | -0.8
CCOc1ccc(NC(=O)CN(C)C(=O)c2nc3nc(C)cc(C)n3n2)cc1OCC | 9.5 | 0.66 | 3% | -1.8 | i | / | 2.7
O=C(NC12CC3CC(CC(C3)C1)C2)c1ccc(S(=O)(=O)N2CCOCC2)cc1 | / | 0.79 | 6% | 0.3 | / | -2.3 | 6.7
c1ccc(CC2CCN(c3nnnn3-c3ccccc3)CC2)cc1 | / | 0.69 | 17% | -3.2 | / | 0.8 | 4.2
Cc1ccc(NC(=O)NC(=O)COC(=O)c2ccc(O)cc2O)c(C)c1 | 2.2 | / | 2% | -0.2 | i | / | /
CC(=O)Nc1ccc(S(=O)(=O)N2CCN(c3nc(C)cc(C)n3)CC2)cc1 | 4.2 | 0.57 | / | 5.5 | i | 2.0 | 1.8
Cc1ccc(NC(=O)CN2C(=O)NC(C)(CCc3ccccc3)C2=O)cc1 (stereo not drawn) | 2.1 | 0.72 | 7% | -3.6 | i | 3.1 | 3.3
CC(C)(CNC(=O)CNC(=O)C1CCCCC1)N1CCOCC1 | -1.8 | 0.7 | 11% | 0.7 | i | / | -0.7
CCN1C(=O)/C(=C2\C=Cc3ccccc3N2CC)OC1=S | 11 | 0.72 | / | 21 | i | 1.8 | 1.8
O=C(N/N=C/c1ccco1)c1ccc2nc[nH]c2c1 | 0.3 | / | / | -2.5 | i | -1.4 | /
CCOc1ccc(CCNS(=O)(=O)c2cccc3nsnc23)cc1OCC | / | 0.77 | 5% | 1.2 | / | 2.5 | 6.4
O=C(O)c1cc(NCc2ccccc2)ccc1N1CCOCC1 | / | 0.74 | 6% | 0.1 | / | 4.6 | -5.9
Cc1cccc(C)c1NC(=O)C(c1ccccc1)N1CCC2(CC1)OCCO2 (stereo not drawn) | / | 0.71 | / | 0.4 | / | 2.6 | 1.0
CN(C(=O)COC(=O)Cn1c(C(F)(F)F)nc2ccccc21)c1c(N)n(Cc2ccccc2)c(=O)[nH]c1=O | -0.7 | 0.68 | / | -0.4 | i | 4.8 | 1.0
CCCSC1=C(C#N)C(c2ccc(OC)cc2)C2=C(CC(C)(C)CC2=O)N1 (stereo not drawn) | / | 0.69 | 1% | -1.1 | / | 2.0 | -11
CCOc1cc(CN2CCSCC2)ccc1O | / | 0.67 | -1% | 3.2 | / | 0.8 | 2.7
CC(=O)c1cccc(NC(=O)C2CCN(S(=O)(=O)c3cccs3)CC2)c1 | / | 0.69 | -2% | 1.1 | / | -3.4 | 0.7
Cc1ccc(NC(=O)CN(C)C(=O)C(C)N2CCN(Cc3ccccc3C)CC2)cc1 (stereo not drawn) | -1.4 | 0.67 | -10% | -2.1 | i | / | -2.6
Cc1nnc(SCc2cc(=O)oc3cc(O)ccc23)n1Cc1ccccc1 | / | 0.73 | -1% | 0.5 | / | 12 | -11

11 successive compounds from above:
SMILES | MLL AF4-AF9 inh | Ecoli growth | Vif A3G | HNF4A DNA FP | FGF22 binding | RanGTP-Impb inh | UCH37 inh
CCOc1ccc(NC(=O)CN(C)C(=O)c2nc3nc(C)cc(C)n3n2)cc1OCC | 9.5 | 0.66 | 3% | -1.8 | i | / | 2.7
O=C(NC12CC3CC(CC(C3)C1)C2)c1ccc(S(=O)(=O)N2CCOCC2)cc1 | / | 0.79 | 6% | 0.3 | / | -2.3 | 6.7
c1ccc(CC2CCN(c3nnnn3-c3ccccc3)CC2)cc1 | / | 0.69 | 17% | -3.2 | / | 0.8 | 4.2
Cc1ccc(NC(=O)NC(=O)COC(=O)c2ccc(O)cc2O)c(C)c1 | 2.2 | / | 2% | -0.2 | i | / | /
CC(=O)Nc1ccc(S(=O)(=O)N2CCN(c3nc(C)cc(C)n3)CC2)cc1 | 4.2 | 0.57 | / | 5.5 | i | 2.0 | 1.8
Cc1ccc(NC(=O)CN2C(=O)NC(C)(CCc3ccccc3)C2=O)cc1 (stereo not drawn) | 2.1 | 0.72 | 7% | -3.6 | i | 3.1 | 3.3
CC(C)(CNC(=O)CNC(=O)C1CCCCC1)N1CCOCC1 | -1.8 | 0.7 | 11% | 0.7 | i | / | -0.7
CCN1C(=O)/C(=C2\C=Cc3ccccc3N2CC)OC1=S | 11 | 0.72 | / | 21 | i | 1.8 | 1.8
O=C(N/N=C/c1ccco1)c1ccc2nc[nH]c2c1 | 0.3 | / | / | -2.5 | i | -1.4 | /
CCOc1ccc(CCNS(=O)(=O)c2cccc3nsnc23)cc1OCC | / | 0.77 | 5% | 1.2 | / | 2.5 | 6.4
O=C(O)c1cc(NCc2ccccc2)ccc1N1CCOCC1 | / | 0.74 | 6% | 0.1 | / | 4.6 | -5.9

An excerpt from above in order of the HNF4A DNA FP value, ascending:
SMILES | MLL AF4-AF9 inh | Ecoli growth | Vif A3G | HNF4A DNA FP | FGF22 binding | RanGTP-Impb inh | UCH37 inh
O=C(O)c1cc(NCc2ccccc2)ccc1N1CCOCC1 | / | 0.74 | 6% | 0.1 | / | 4.6 | -5.9
Cc1nnc(SCc2cc(=O)oc3cc(O)ccc23)n1Cc1ccccc1 | / | 0.73 | -1% | 0.5 | / | 12 | -11
CC(C)(CNC(=O)CNC(=O)C1CCCCC1)N1CCOCC1 | -1.8 | 0.7 | 11% | 0.7 | i | / | -0.7

Other results
SMILES | MLL AF4-AF9 inh | Ecoli growth | Vif A3G | HNF4A DNA FP | FGF22 binding | RanGTP-Impb inh | UCH37 inh
COc1ccc(C(C(=O)NCC2CCCO2)N(C(=O)CNC(=O)c2cccs2)c2ccccc2)cc1OC (stereo not drawn) | -0.3 | 0.72 | 22% | 2.2 | i | -4.2 | -0.1
COC(=O)c1c(NC(=O)CN2CCC(C(N)=O)CC2)c2c(C)cccc2n1C | / | 0.73 | 21% | -1.5 | / | 0.3 | 2.9
O=C(Cc1ccccc1F)Nc1cccc(S(=O)(=O)N2CCCCC2)c1 | -0.1 | / | 4% | -2.7 | i | / | /
C/C=C\C(=O)Nc1cccc(C2=NOC3(C2)C[C@@H](C(N)=O)N(C(=O)CCCCC)C3)c1 (stereo partly drawn) | -2.2 | / | -12% | -2.7 | i | -3.9 | -1.5
O=C(O)c1cnc(-c2ccccc2)nc1Sc1ccc(Cl)cc1 | / | 0.69 | ? | -2.4 | / | -7.1 | -0.2
COc1ccc(C(=O)Nc2cc(OC)c(Cl)cc2Cl)cc1 | -4.3 | 0.69 | -1% | 1.2 | i | 2.6 | -3.9
CCC(C)Sc1nnc(NC(=O)C2CCN(C(=O)c3ccco3)CC2)s1 (stereo not drawn) | -0.6 | 0.69 | / | -2.2 | i | 0.3 | 2.9
O=c1c2ccccc2[nH]c(=S)n1CCN1CCCC1 | -1.8 | 0.66 | -15% | 1.9 | i | -3.0 | 1.2
O=C(N[C@@H](c1ccccc1)[C@@H]1C[C@H]1C(=O)NCc1ccccn1)OCc1ccccc1 | -23 | / | 0% | -2.4 | i | 0.2 | 1.7
C=CCSC1=Nc2sccc2C2=NC(=O)CN12 | / | 0.79 | ? | 1.8 | / | ? | 6.1
O=C1NC2(CCCC2)C(=O)N1CCS(=O)(=O)Oc1ccccc1 | 4.6 | 0.66 | -8% | 0.6 | i | -2.7 | 0.3
Cc1nn(CC(=O)N2N=C(C(F)F)CC2(O)C(F)F)c(C)c1[N+](=O)[O-] (stereo not drawn) | -0.2 | 0.71 | / | -0.3 | i | -1.9 | -1.6
c1ccc(-c2nc3ccccc3s2)nc1 | -3.4 | 0.62&0.7 | -4%&0% | 3.4&-2.3 | / | -0.7&4.4 | 2.8&1.5
COc1cc(C(=O)NCC2CCCCC2)cc(OC)c1OC | 0.0 | 0.66 | 1% | 0.2 | i | -3.2 | 2.5

High-throughput results deposited in PubChem BioAssay by several laboratories.

These rows are one share of the data; count on the stated rates, not on these rows.
